TRPV1 potentiator: HTS Assay for Compounds that Act as Potentiators of the Vanilloid Receptor 1; AID 540277, 2011; Transient receptor potential cation channel subfamily V member 1 (Homo sapiens), Q8NER1; hit rate 0.02% among 320,000; TRPV1-expressing cells, Fluo-8 calcium influx, capsaicin EC20 potentiation; host cell line not named in the record; control for the full effect not named in the record; potentiation, % at 8.33 µM; active means potentiation above 80%; inconclusive means 30% to 80%; inactive means below 30%; note: 0% is about no effect
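Cells expressing TRPV1 were dye-loaded with Fluo-8 and read kinetically: 10 s baseline, 3 min after compound (agonist portion), then 2 min after EC20 capsaicin (allosteric enhancer portion). Calcium-bound dye fluorescence at 480/520 nm.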
gsp antagonist: qHTS for Antagonists of gsp, the Etiologic Mutation Responsible for Fibrous Dysplasia/McCune-Albright Syndrome: qHTS; gsp-mutant cells, cAMP HTRF, 30 min; control for the full effect not named in the record; Potency, µM (doses to about 76.9 µM), without a hit: top-dose activity change, negative = inhibition, hits mostly inhibitors; hit rate 0.4% among 340,000; active = falling curve of any shape with a large fitted effect; inconclusive = falling curve, mostly with a smaller effect; inactive = flat or rising curve; cell line not stated here;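 note: intracellular cAMP measured with PDE inhibitor Ro 20-1724 present during compound exposure; potency is the fitted concentration of half-maximal effect; % is set by controls: 0 for no effect and ±100 for the full control effect; nearly all actives have a fitted effect of over 65% in size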
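HTRF cAMP measurement after 30 min RT detection following 30 min, 37C compound treatment alongside […] (added as 300 uM solution) in G418-selected cells seeded at 2000/well and grown 16–24 h.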
Menin-MLL FL inh: qHTS Assay for Inhibitors Targeting the Menin-MLL Interaction in MLL Related Leukemias: Competition With Fluorescein Labeled MLL-derived Peptide | Fluorescence polarization, fluorescein-MLL peptide displacement from menin | FP activity change, % at 61.4 µM | 290,000 tested, under 10 active | AID 1766, 2009; inconclusive = falling polarisation curve, or a change in total fluorescence; inactive = total fluorescence flat and polarisation flat or rising; no compound was filed as active; the % refers to the polarisation; negative = inhibition;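 note: % of control where 0% means no effect; inhibitors lower the polarisation; unlabelled MLL peptide was the positive control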
D2 potentiator: Beta-Arrestin HTS for Positive Allosteric Modulators of the Human D2 Dopamine Receptor: Potentiators; hit rate 0.23% among 360,000; D(2) dopamine receptor (Homo sapiens), P14416; DiscoveRx D2 beta-arrestin cells, luminescence, 90 min; 100% = 57 uM dopamine signal; AID 624464, 2012; potentiation, % (no concentration beside the values); active = potentiation of 50% or more; inconclusive = 30% to 50%; inactive = 30% or less;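 note: compound concentration not given in the record; tested on top of an EC20 dose of dopamine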
Target sequence (P14416 whole entry, looked up): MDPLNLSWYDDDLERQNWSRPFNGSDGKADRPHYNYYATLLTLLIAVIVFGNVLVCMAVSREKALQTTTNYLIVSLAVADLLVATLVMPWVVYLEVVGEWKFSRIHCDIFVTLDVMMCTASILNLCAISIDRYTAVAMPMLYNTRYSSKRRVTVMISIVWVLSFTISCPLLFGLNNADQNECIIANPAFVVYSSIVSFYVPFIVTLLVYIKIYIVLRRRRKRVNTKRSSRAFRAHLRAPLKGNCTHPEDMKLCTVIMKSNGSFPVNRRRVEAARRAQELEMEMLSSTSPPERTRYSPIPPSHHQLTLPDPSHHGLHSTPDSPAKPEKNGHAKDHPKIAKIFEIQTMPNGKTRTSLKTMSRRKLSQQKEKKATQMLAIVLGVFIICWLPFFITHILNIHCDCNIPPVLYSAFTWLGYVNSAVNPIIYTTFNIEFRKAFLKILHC
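PathHunter D2 cells, attached overnight at 37 deg C, received compound in DMSO plus dopamine at EC20 (50 nM final) for 90 min at 37 deg C. Beta-arrestin recruitment was read as luminescence after 1 h with detection reagent at ambient temperature.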
gsp ag: qHTS for Agonist of gsp, the Etiologic Mutation Responsible for Fibrous Dysplasia/McCune-Albright Syndrome: qHTS; gsp mutant cells, cAMP HTRF, 30 min; control for the full effect not named in the record; Potency, µM (doses to about 76.9 µM), for the others: at the top dose activation (cAMP increase), hits mostly activators; hit rate 0.13% among 340,000; active = well fitted activation curve with a large enough effect; inconclusive = small, poorly fitted or top-dose-only effect, or another doubt; inactive = no such curve, though single readings can be large or run the other way; cell line not stated here;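 note: phosphodiesterase inhibitor Ro 20-1724 added with compounds to block cAMP breakdown; potency is the fitted concentration of half-maximal effect; nearly all actives have a fitted effect of over 60% in size; about a fifth of the inactives were tested at one dose only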
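Cells stably selected in G418 were plated at 2000/well, grown 16-24 hr, then given compounds in DMSO with the PDE inhibitor […] (300 uM solution added) for 30 min at 37C; cAMP was read by HTRF.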
Sfp inh: qHTS Assay for Inhibitors of Bacillus subtilis Sfp phosphopantetheinyl transferase (PPTase). 4'-phosphopantetheinyl transferase ffp (Bacillus subtilis), Q9F4F7. Biochemical Sfp PPTase activity, qHTS. Potency, µM, for the others: max response, negative = inhibition, hits mostly inhibitors. hit rate 3.5% among 310,000. AID 1490, 2009; active = well fitted inhibition curve with a large enough effect; inconclusive = small, poorly fitted or top-dose-only effect, or another doubt; inactive = no such curve, though single readings can be large or run the other way;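 note: the enzyme is Sfp with the accession as filed and its product quenches rhodamine fluorescence; potency is the fitted concentration of half-maximal effect; 0% = enzyme reaction without inhibitor and -100% = no enzyme wells; top concentration of the series not given in the record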
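Buffer: 50 mM Hepes-Na pH 7.6, 10 mM MgCl2, 0.01% Nonidet P-40, 0.01% BSA. Enzyme 15 nM, pre-exposed to compound 15 min; substrates then added and fluorescence change tracked over 30 min.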
ClpP mod: qHTS Assay for Activators of ClpP; AID 651965, 2013; purified B. subtilis ClpP, FRET peptide cleavage, 20 min; Potency, µM (doses to about 57.5 µM), inactives show at the top dose activity change, negative = active; hit rate 1.9% among 340,000; active = well fitted falling curve with a large enough effect; inconclusive = small, poorly fitted or top-dose-only effect; inactive = no such curve, though single readings can be large or run the other way; note: potency is the fitted concentration of half-maximal effect; the source files actives as falling curves though it sought activators and does not explain the sign; nearly all actives have a fitted effect of over 65% in size; many hits overshoot -100%
Target sequence (P80244 whole entry, looked up): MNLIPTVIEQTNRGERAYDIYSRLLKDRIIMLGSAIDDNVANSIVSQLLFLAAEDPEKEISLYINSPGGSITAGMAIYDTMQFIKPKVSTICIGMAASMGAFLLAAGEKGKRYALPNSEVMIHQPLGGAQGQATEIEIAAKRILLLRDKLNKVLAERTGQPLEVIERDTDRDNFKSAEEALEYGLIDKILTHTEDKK
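Purified B. subtilis ClpP, 10 microg/mL final in Tris/HCl pH8 with KCl, BSA, glycerol and Tween-20, cleaved an Abz/nitrotyrosine-quenched decapeptide. Fluorescence (ex 320, em 430) was read at 0 and 20 min at room temperature. Delta was normalized to 5.8 microM ADEP and DMSO/no-enzyme controls.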
Active calls of the source: *; & = joins results of further samples; [ ] = remark or other dose. The order is random, and some 5.1% of all compounds hit somewhere here.

Results for Cc1cccc(NCN2C(=O)C3C4C=CC(C4)C3C2=O)c1 (stereo not given) ?
TRPV1 potentiator: -6; gsp antagonist: 4%; Menin-MLL FL inh: -0.4; D2 potentiator: -15; gsp ag: -4%; Sfp inh: 3%; ClpP mod: -18%

How did CC(=O)Nc1ccccc1/C=C/c1ccc2c(C)cc(C)c(O)c2n1 do in these assays?
TRPV1 potentiator: 13; gsp antagonist: -13%; Menin-MLL FL inh: 6.8; D2 potentiator: 4; gsp ag: 21%; Sfp inh: 10%; ClpP mod: 0.2%

What do the screens show for `CCN(c1ccc(NC(=O)COC(=O)c2cccs2)cc1)C(C)C`?
TRPV1 potentiator: -20; gsp antagonist: -2%; Menin-MLL FL inh: 2.5; D2 potentiator: -8; gsp ag: -27%; Sfp inh: -6%; ClpP mod: -3.3%

How did Cc1ccc(S(=O)(=O)N2CCN(c3nccnc3C#N)CC2)cc1 do in these assays?
TRPV1 potentiator: -3; gsp antagonist: -15%; Menin-MLL FL inh: 3.8; D2 potentiator: -8; gsp ag: 6%; Sfp inh: -12%

How did COc1ccc(CC(NC(C)=O)C(=O)NC2CCN(C(=O)c3ccc(Cl)cc3)CC2)cc1 (stereo not given) do in these assays?
TRPV1 potentiator: -13; gsp antagonist: 1%; Menin-MLL FL inh: -0.5; D2 potentiator: -6; gsp ag: -27%; Sfp inh: 8%

How did CCOc1ccccc1-c1nc(-c2ccc(NC(=O)Cc3ccccc3OC)cc2)no1 do in these assays?
TRPV1 potentiator: -5; gsp antagonist: -9%; Menin-MLL FL inh: 0.9; D2 potentiator: 2; gsp ag: 14%; Sfp inh: 4%; ClpP mod: inconclusive

How did Cc1ccc(C)c(N(CC(=O)NC(C)C)C(=O)CCC(=O)Nc2ccccn2)c1 do in these assays?
TRPV1 potentiator: 0; gsp antagonist: -1%; Menin-MLL FL inh: -6.4; D2 potentiator: 0; gsp ag: 10%[15.4 µM]; Sfp inh: 8%; ClpP mod: -0.1%

Results for C=CCN1C(=O)C(Cc2cccc(Cl)c2)SC1=Nc1ccc(C(=O)O)cc1 (stereo not given) ?
TRPV1 potentiator: -1; gsp antagonist: -13%; Menin-MLL FL inh: 4.3; D2 potentiator: -8; gsp ag: 4%; Sfp inh: inconclusive; ClpP mod: -1.4%

Results for O=C(COc1nncc2ccccc12)Nc1ccc(Br)cc1F ?
TRPV1 potentiator: 19; gsp antagonist: -11%; Menin-MLL FL inh: 0.9; D2 potentiator: 0; gsp ag: -2%; Sfp inh: 9%

How did CCOc1ccccc1NC(=O)C1CCCN(S(=O)(=O)c2cccc3nsnc23)C1 (stereo not given) do in these assays?
TRPV1 potentiator: 7; gsp antagonist: -16%; Menin-MLL FL inh: 10; D2 potentiator: -11; gsp ag: 25%; Sfp inh: 8%; ClpP mod: 1.3%

How did C=CCN(C(=O)OC(C)(C)C)S(=O)(=O)NCc1ccccc1 do in these assays?
TRPV1 potentiator: 10; gsp antagonist: 3%; D2 potentiator: -7; gsp ag: 5%; ClpP mod: -0.6%&-0.8%

What do the screens show for `COCc1cc(/C=N\NC(=O)c2ccc(Cl)cc2)ccc1OC`?
TRPV1 potentiator: -18; gsp antagonist: 7%; Menin-MLL FL inh: -1.4; D2 potentiator: -6; gsp ag: 14%[15.4 µM]; Sfp inh: 20%; ClpP mod: -0.6%

How did Cc1nc2cc(CO)ccc2s1 do in these assays?
TRPV1 potentiator: -5; gsp antagonist: 1%; Menin-MLL FL inh: 14; D2 potentiator: 22; gsp ag: 2%; Sfp inh: 10%; ClpP mod: -6.2%

How did O=C(Cn1cc(/C=C\[N+](=O)[O-])c2ccccc21)Nc1ccccc1 do in these assays?
TRPV1 potentiator: 17; gsp antagonist: 14%; Menin-MLL FL inh: 4.3; D2 potentiator: -1; gsp ag: -17%; Sfp inh: -9%

What do the screens show for `Cn1cc(S(=O)(=O)Nc2ccc(Oc3ccccc3)cc2)c(=O)n(C)c1=O`?
TRPV1 potentiator: 5; gsp antagonist: -6%; D2 potentiator: -8; gsp ag: 1%; Sfp inh: 3%; ClpP mod: -3.0%

How did O=C1C2=C(C(c3ccccc3)=NCCN2)C(c2cccc([N+](=O)[O-])c2)N1c1ccccc1 (stereo not given) do in these assays?
TRPV1 potentiator: 20; gsp antagonist: 15%; Menin-MLL FL inh: -2.4; D2 potentiator: -11; gsp ag: 14%[15.4 µM]; Sfp inh: 1%

Results for CCOC(=O)N1CCN(c2ccc(N3C(=O)CCCC3=O)cc2[N+](=O)[O-])CC1 ?
TRPV1 potentiator: -5; gsp antagonist: -1%; Menin-MLL FL inh: -3.2; D2 potentiator: -6; gsp ag: -23%[15.4 µM]; Sfp inh: 3%

What do the screens show for `Cc1ccc2cccc(S(=O)(=O)Nc3c(C)n(C)n(-c4ccccc4)c3=O)c2n1`?
TRPV1 potentiator: -8; gsp antagonist: 6%; Menin-MLL FL inh: -6.9; D2 potentiator: -11; gsp ag: -19%; Sfp inh: 12%; ClpP mod: -0.4%

How did Cc1cccc(-c2oc(C)c(C)[n+]2[O-])c1 do in these assays?
TRPV1 potentiator: 10; gsp antagonist: -2%; Menin-MLL FL inh: -0.9; D2 potentiator: 3; gsp ag: -9%; Sfp inh: 2%; ClpP mod: -2.8%

How did CS(=O)(=O)Cc1cccc(C(=O)NC2CCSc3ccccc32)c1 (stereo not given) do in these assays?
TRPV1 potentiator: 0; gsp antagonist: 12%; Menin-MLL FL inh: 0.4; D2 potentiator: -4; gsp ag: 1%[15.4 µM]; Sfp inh: 5%

How did CC(CCl)OC(C)CCl (stereo not given) do in these assays?
TRPV1 potentiator: -4; gsp antagonist: 0%; D2 potentiator: 2; ClpP mod: -1.7%

How did CC(=O)Nc1ccc(N(CC(O)Cn2c3ccccc3c3ccccc32)S(=O)(=O)c2ccc(C)cc2)cc1 (stereo not given) do in these assays?
TRPV1 potentiator: 9; gsp antagonist: -2%; Menin-MLL FL inh: 2.9; D2 potentiator: 4; gsp ag: -8%[15.4 µM]; Sfp inh: 22%; ClpP mod: -1.3%

Results for COC(=O)c1ccc(C2/C(=C(\O)c3ccc4c(c3)OCCO4)C(=O)C(=O)N2c2nnc(C)s2)cc1 (stereo not given) ?
TRPV1 potentiator: 21; gsp antagonist: 3%; Menin-MLL FL inh: 4.0; D2 potentiator: -6; gsp ag: inconclusive; Sfp inh: -1%; ClpP mod: 0.0%

Results for Cc1nnsc1NC(=O)OCc1ccc(C(C)(C)C)cc1 ?
TRPV1 potentiator: 2; gsp antagonist: -17%; Menin-MLL FL inh: 3.5; D2 potentiator: 29; gsp ag: -6%; Sfp inh: 15%; ClpP mod: 1.0%

Results for Cc1ccc(NC(=O)c2c3c(nc4ccccc24)CCC3)cc1S(=O)(=O)N(C)C ?
TRPV1 potentiator: 16; gsp antagonist: 5%; Menin-MLL FL inh: -1.2; D2 potentiator: -2; gsp ag: -2%; Sfp inh: 1%

What do the screens show for `Cc1ccc(C)c(-c2nnc(OCC(=O)Nc3cc(C)on3)c3ccccc23)c1`?
TRPV1 potentiator: -9; gsp antagonist: -33%; Menin-MLL FL inh: 0.2; D2 potentiator: 5; gsp ag: -32%[inhibitor]; Sfp inh: -6%; ClpP mod: -12%

Results for O=C(N=NC(=O)c1ccco1)c1ccc2c(O)n(N3C(=O)c4ccccc4C3=O)c(O)c2c1 ?
TRPV1 potentiator: 3; gsp antagonist: 9%; Menin-MLL FL inh: 3.7; D2 potentiator: -7; gsp ag: 0%; Sfp inh: -6%; ClpP mod: 0.4%

Results for Cc1ccc(N2C(N)=C(C#N)C(c3cc(CN4CCOCC4)cs3)C3=C2CC(C)(C)CC3=O)cc1 (stereo not given) ?
TRPV1 potentiator: inconclusive; gsp antagonist: -1%; Menin-MLL FL inh: 0.9; D2 potentiator: -2; gsp ag: -17%[15.4 µM]; Sfp inh: 2%

Results for COc1cc(NC(=O)COC(=O)c2n[nH]c3ccccc23)c(C)cc1[N+](=O)[O-] ?
TRPV1 potentiator: 9; gsp antagonist: -20%; Menin-MLL FL inh: -0.7; D2 potentiator: -5; gsp ag: 6%; Sfp inh: 17%; ClpP mod: -0.3%

How did Cc1[nH]nc(N=CC2=C(O)CC(c3ccco3)CC2=O)c1-c1ccc(Cl)cc1 (stereo not given) do in these assays?
TRPV1 potentiator: 13; gsp antagonist: -8%; Menin-MLL FL inh: 8.0; D2 potentiator: -16; gsp ag: 6%; Sfp inh: -21%; ClpP mod: inconclusive

What do the screens show for `Cc1noc(NS(=O)(=O)c2ccc(NC(=O)C(F)(F)F)cc2)c1C`?
TRPV1 potentiator: 2; gsp antagonist: 4%; Menin-MLL FL inh: 0.2; D2 potentiator: -3; gsp ag: 27%; Sfp inh: 2%; ClpP mod: 1.0%

Results for CC(=O)C1=C(O)C(=O)N(CCCn2ccnc2)C1c1ccc(Cl)cc1 (stereo not given) ?
TRPV1 potentiator: 9; gsp antagonist: 3%; Menin-MLL FL inh: 0.5; D2 potentiator: -4; gsp ag: -33%; Sfp inh: 2%; ClpP mod: -7.1%

Results for CCC(=O)N1CCc2cc(Br)cc(S(=O)(=O)CCC(=O)NCC3CCCO3)c21 (stereo not given) ?
TRPV1 potentiator: 3; gsp antagonist: -3%; Menin-MLL FL inh: 4.3; D2 potentiator: -14; gsp ag: -4%[15.4 µM]; Sfp inh: 0%; ClpP mod: -13%
